AID923: qHTS Assay for Allosteric/Competitive Inhibitors of Caspase-1: Spectroscopic Profiling in AFC Spectral Region; Potency, µM (doses to about 57.5 µM), for inactives: at the highest dose fluorescence increase, usual class: activators; compound fluorescence, AFC spectral region (405/520 nm); almost no hit is shown here; AID 923, 2007; 1.1% of 75,000 active; active means well fitted activation curve with a large enough effect; inconclusive means small, poorly fitted or top-dose-only effect;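 further: potency means the concentration at half of the fitted maximal effect; 0% is about no effect; scaled to a free AFC standard on each plate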
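Baseline compound fluorescence (AFC region, 405 nm ex/520 nm em) taken from the intercept of kinetic reads with 50 nM caspase-1 and 5 uM Ac-WEHD-AFC; normalized to an on-plate AFC standard curve; compounds titrated up to 57 uM.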
Resorufin fluor: compounds fluorescent in resorufin spectral region | AID 588 | Compound fluorescence, resorufin region 547/598 nm, buffer; stronger effect = higher value | 0.04% of 59,000 active | max dye-equivalent concentration, M; active = above 10 nM dye equivalent; inconclusive = 1 to 10 nM; inactive = 1 nM or less; a few of its hits are not listed in these tables; further: highest value over a series up to 38 µM
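Intrinsic fluorescence profiled in the resorufin window (ex 547 nm, em 598 nm) after 15 min at room temperature in pH 8.0 Tris buffer (100 mM); responses normalized against a six-point resorufin standard series as dye-equivalent concentration.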
TSHR ag: activates the human thyroid stimulating hormone receptor | 0.48% of 73,000 active | P16473 | AID 926 | Potency, µM (series often up to 57.1 µM), inactives show at the top dose activation, actives largely listed as activators | HEK293-CNG-TSHR cells (CNG channel as cAMP sensor), membrane potential dye, cAMP; active = well fitted activation curve of enough size with the parental cells flat; inconclusive = any curve in the parental cells; inactive = parental cells flat and receptor cells flat or falling; further: potency means the concentration at half of the fitted maximal effect; % of control where 0% means no effect; weak receptor curves with flat parental cells got no call and are not listed
Target sequence (P16473 whole entry, looked up): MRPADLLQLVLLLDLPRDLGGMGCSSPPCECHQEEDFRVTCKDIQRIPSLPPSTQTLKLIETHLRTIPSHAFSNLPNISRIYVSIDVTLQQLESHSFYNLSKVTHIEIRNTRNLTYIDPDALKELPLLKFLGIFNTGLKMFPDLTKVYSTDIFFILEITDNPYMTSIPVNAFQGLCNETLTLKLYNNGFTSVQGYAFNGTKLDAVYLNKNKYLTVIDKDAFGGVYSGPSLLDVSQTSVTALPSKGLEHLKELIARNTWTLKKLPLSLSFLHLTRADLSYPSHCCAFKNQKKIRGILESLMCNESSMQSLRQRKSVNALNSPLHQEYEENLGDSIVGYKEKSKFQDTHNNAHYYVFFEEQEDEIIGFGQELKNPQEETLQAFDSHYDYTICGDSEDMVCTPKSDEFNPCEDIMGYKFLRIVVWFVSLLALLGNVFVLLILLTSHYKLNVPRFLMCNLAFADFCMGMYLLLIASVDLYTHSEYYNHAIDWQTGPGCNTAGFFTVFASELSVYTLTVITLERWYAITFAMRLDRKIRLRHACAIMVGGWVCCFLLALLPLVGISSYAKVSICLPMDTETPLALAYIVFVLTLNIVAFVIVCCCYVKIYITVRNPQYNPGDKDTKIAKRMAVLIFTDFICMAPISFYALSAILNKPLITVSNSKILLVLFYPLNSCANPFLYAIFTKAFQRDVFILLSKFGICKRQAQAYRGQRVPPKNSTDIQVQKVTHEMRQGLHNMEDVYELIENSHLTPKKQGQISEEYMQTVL
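HEK 293 cells stably expressing TSHR and a cAMP-gated CNG channel; parental CNG-only cells as counterscreen. Cells preloaded 60 min with membrane potential dye plus 100 uM RO 20-1724, then compound 30 min; fluorescence read at 590 nm.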
A488 fluor: compound fluoresces in the A488 spectral region; 0.1% of 59,000 active; max dye equivalency, M; compound autofluorescence, A488 spectral region, dye equivalency; stronger effect = higher value; AID 591; active = above 10 nM dye equivalent; inconclusive = 1 to 10 nM; inactive = 1 nM or less; about half of its hits are not listed in these tables;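 further: highest value over a series up to 38 µM; compound alone in buffer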
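Read-out: relative fluorescence at 480/540 nm, expressed as Alexa 488 dye-equivalent concentration from a six-point A488 standard included per plate. Conditions: 100 mM Tris, pH 8.0; 15 min incubation, room temperature.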
A647 autofl: compound fluoresces in the A647 spectral region; AID 592; Compound fluorescence, A647 channel (570/671 nm), Tris buffer; max dye-equivalent concentration, M; 59,000 tested, under 10 active; active means above 1 µM dye equivalent; inconclusive means 0.1 to 1 µM; inactive means 0.1 µM or less;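 further: values scaled relative to a standard on each plate; highest value over a series up to 38 µM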
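Tris 100 mM pH 8.0; cpd + A647 stds pin-transferred; 15 min RT; CCD imager, ex 570/em 671. Output = A647-equivalent conc. per cpd conc.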
The depositor's hits bear a star; i = inactive; ? = inconclusive; / = no result given; & = joins results of further samples; [ ] = another dose, or the depositor's remark. A portion of the library, so the mix of outcomes need not match the whole.

Molecule	AID923	Resorufin fluor	TSHR ag	A488 fluor	A647 autofl
Cc1ccc2c(c1)C1CN(C)CCC1N2CC(=O)N(C)c1ccccc1 (stereo not given)	0.4%	i	-1%	i	1e-09
O=C(NCc1ccc2c(c1)OCO2)c1ccc(NC(=O)C2CCCO2)cc1 (stereo not given)	-1.4%	i	-4%[11.4 µM]	i	4e-08
COCCN1C(=O)C(=O)/C(=C(/O)c2cccc(OC)c2)C1c1ccc(C)o1 (stereo not given)	0.9%	i	0%	i	2.3e-08
CN(CCCNC(=O)C1CCN(S(=O)(=O)c2cccc3nsnc23)CC1)Cc1ccccc1	0.5%	i	-2%	i	1e-09
COc1ccccc1Oc1ccccc1C(=O)O	2.5%	/	4%	/	/
COc1ccc(N(CC(=O)NCc2ccco2)S(=O)(=O)c2ccc(OC)c(OC)c2)cc1	1.7%	/	3%	/	/
O=c1cc(N2CCN(c3ccccc3)CC2)[nH]c(=O)n1C1CCCCC1	1.4%	i	23%	i	1.8e-08
COC(=O)c1ccc(C(=O)OC)c(NS(C)(=O)=O)c1	2.0%	i	3%	i	2.6e-09
Cc1ccccc1NS(=O)(=O)c1ccc(C2CNC(=O)C2)cc1 (stereo not given)	1.7%	i	11%	i	2.1e-08
COCCCNC(CC(=O)Nc1ccc(OC)cc1OC)C(=O)O (stereo not given)	3.3%	i	19%	i	4.2e-08
Cc1cccc(NC(=O)CN2C(=O)COc3ccc(Cl)cc32)c1C	2.3%	/	?	/	/
COc1ccc(C)cc1S(=O)(=O)Nc1cccnc1	-1.5%	i	-3%	i	1e-09

Sorted by value in A647 autofl (rising): seven of the compounds above.
| SMILES | A488 fluor | A647 autofl |
| --- | --- | --- |
| Cc1ccc2c(c1)C1CN(C)CCC1N2CC(=O)N(C)c1ccccc1 (stereo not given) | i | 1e-09 |
| COC(=O)c1ccc(C(=O)OC)c(NS(C)(=O)=O)c1 | i | 2.6e-09 |
| O=c1cc(N2CCN(c3ccccc3)CC2)[nH]c(=O)n1C1CCCCC1 | i | 1.8e-08 |
| Cc1ccccc1NS(=O)(=O)c1ccc(C2CNC(=O)C2)cc1 (stereo not given) | i | 2.1e-08 |
| COCCN1C(=O)C(=O)/C(=C(/O)c2cccc(OC)c2)C1c1ccc(C)o1 (stereo not given) | i | 2.3e-08 |
| O=C(NCc1ccc2c(c1)OCO2)c1ccc(NC(=O)C2CCCO2)cc1 (stereo not given) | i | 4e-08 |
| COCCCNC(CC(=O)Nc1ccc(OC)cc1OC)C(=O)O (stereo not given) | i | 4.2e-08 |

More compounds follow:
Molecule	AID923	Resorufin fluor	TSHR ag	A488 fluor	A647 autofl
Cc1ccc(CNC(=O)C2CCCCC2C(=O)O)cc1 (stereo not given)	-0.2%	i	-1%	i	2.5e-09
O=C(c1ccc(CS(=O)(=O)c2ccc(Br)cc2)o1)N1CCN(C2CCCCC2)CC1	2.7%	/	?	/	/
Cc1ccc(S(=O)(=O)N2CCN(C(=O)CN3CCCC3)C2)cc1	3.6%	/	14%	/	/
C=C(C)c1cccc(C(C)(C)NC(=O)N2CCOCC2)c1	0.5%	i	6%	i	9.2e-09
O=C(NCCN1CCCC1)c1ccc2c(c1)N(Cc1ccc(F)cc1)C(=O)c1ccccc1S2=O (stereo not given)	4.1%	/	-1%	/	/
COc1ccc2nc(NC(=O)C3CCCN(S(=O)(=O)c4cccc5nonc45)C3)sc2c1 (stereo not given)	0.6%	i	-21%	i	2.4e-08
O=C(c1ccc2c(c1)OCCO2)C1CCN(S(=O)(=O)c2ccc(F)cc2)CC1	-2.2%	i	13%	i	1e-09
O=C(c1cccc(F)c1)N1CCC2(CCCN(c3ncccn3)C2)CC1	0.1%	i	6%	i	2.8e-09
Clc1ccccc1OCCn1ccnc1	3.0%	i	-5%	i	2.3e-08
COCCCN1C(=O)C(=O)/C(=C(/O)c2ccc(OC)cc2)C1c1cccc(OC)c1 (stereo not given)	-2.1%	i	-12%	i	2.6e-08
Nc1c(C(=O)c2ccc(Br)s2)oc2ccccc12	13%	/	?	/	/
Cc1cc(C)c(C#N)c(SCC(=O)N2CCCCC2)n1	4.4%	i	/	i	6.9e-09

Laid out differently: two of the compounds above.
> Cc1ccc(S(=O)(=O)N2CCN(C(=O)CN3CCCC3)C2)cc1
- AID923 = 3.6%
- Resorufin fluor = /
- TSHR ag = 14%
- A488 fluor = /
- A647 autofl = /
> C=C(C)c1cccc(C(C)(C)NC(=O)N2CCOCC2)c1
- AID923 = 0.5%
- Resorufin fluor = i
- TSHR ag = 6%
- A488 fluor = i
- A647 autofl = 9.2e-09

Next results follow.
Molecule	AID923	Resorufin fluor	TSHR ag	A488 fluor	A647 autofl
COc1ccc(CNc2ncncc2-c2ccccc2CN(C)C)c(OC)c1	0.6%	i	12%	i	1e-09
COc1ccc(-c2nnc3sc(-c4ccc(Br)o4)nn23)cc1OC	-0.9%	i	10%	i	1e-09
O=C(c1cccc(F)c1)N1CCC2(CCCN(C(c3ccccc3)c3ccccc3)C2)CC1	-2.2%	i	9%	i	3.3e-08
O=S1(=O)N=C(Nc2ccc(S(=O)(=O)N3CCCCC3)cc2)c2ccccc21	0.3%	i	-10%	i	1e-09
CCN1CCN(C(=O)c2sc3nc(C)nc(N4CCC(C)CC4)c3c2C)CC1	-1.3%	i	?	i	1e-09
Cc1noc(/C=C/c2ccco2)c1S(=O)(=O)N1CCC(C(=O)N2c3ccccc3CC2C)CC1 (stereo not given)	2.6%	i	?	i	5.1e-09
N#Cc1c(-c2ccco2)nc(NCC2CCCO2)[nH]c1=O (stereo not given)	1.1%	i	5%	i	4.3e-08
CCc1ccc2oc(-c3cc(N=Cc4cccc(OC)c4O)ccc3O)nc2c1	3.4%	i	-8%	i	1.3e-08
Cn1c(SCC(=O)Nc2ccccc2)nc(O)cc1=O	-1.9%	/	3%[11.4 µM]	/	/
Cc1nc2scc(-c3ccco3)c2c(=O)n1/N=C/N(C)C	0.2%	i	-1%	i	2.3e-08
NC(N)=NC(N)=NCCc1ccccc1	-2.2%	i	?	i	2.6e-09&2.5e-08
COc1cccc(C(C(=O)NC(C)(C)C)N(C(=O)CCC(=O)Nc2cc(C)on2)C2CC2)c1OC (stereo not given)	1.1%	i	7%	i	1e-09
CCn1c(COc2cccc(C)c2)nnc1SCC(=O)CC(=O)Nc1ccccc1OC	3.0%	i	?	i	1.6e-08
Cc1cccn2c(=O)c3cc(C(=O)N4c5ccccc5CC4C)n(C)c3nc12 (stereo not given)	2.7%	i	4%	i	7.1e-09
O=C(Nc1c(C(=O)Nc2ccccc2)cnn1-c1ccccc1)c1ccco1	-0.8%	/	2%	/	/
Nc1ccccc1O	1.5%	/	?	/	/
O=C(Nc1cc(C(F)(F)F)ccc1N1CCOCC1)c1ccc(Br)o1	-0.5%	i	/	i	1e-09
COc1cccc(C2OC(=O)c3ccccc3N2C(C)=O)c1OC(C)=O (stereo not given)	-0.5%	/	7%	/	/
O=C(O)CCc1ccc(-c2ccccc2)n1CC(=O)O	0.3%	i	6%	i	2.7e-09
CCCCNc1cc(C)oc(=O)c1C(C)=O	-0.5%	i	-3%	i	1e-09
Cc1ccc(S(=O)(=O)N(C)CC(=O)Nc2cccc(C)n2)cc1	1.2%	i	4%	i	1e-09
O=S(=O)(NCCOCC(F)(F)C(F)F)c1ccc2oc3ccccc3c2c1	1.0%	i	11%[11.4 µM]	i	1e-09
Cn1c(CN2CCCC2)nc2cc(NC(=O)c3ccco3)ccc21	-0.9%	i	-1%	i	4.8e-08
Cc1c(NS(=O)(=O)c2ccc3c(c2)CCN3C(=O)C2CC2)c(=O)n(-c2ccccc2)n1C	-0.4%	i	5%	i	1.7e-08

(next part)
Under each structure: AID923 | Resorufin fluor | TSHR ag | A488 fluor | A647 autofl
O=C1NC(Cc2c[nH]c3ccccc23)C(=O)N1CCOc1ccccc1 (stereo not given)
→ 0.1% | i | -7% | i | 4.7e-09
CCc1nc2ccccc2c(NC(=O)CN2CCC(C)CC2)c1C
→ 0.5% | i | 11% | i | 3.9e-09
CCc1c(C(=O)Nc2ccc(S(=O)(=O)N3CCOCC3)cc2)csc1C
→ -0.7% | i | 20% | i | 3.9e-08
OC(CN1C2=NCCN2c2ccccc21)c1ccc2c(c1)OCO2 (stereo not given)
→ 0.0% | i | 7% | i | 1e-09
CCSC1=N/C(=C\c2ccc(C(=O)O)cc2)C(=O)S1
→ 0.1% | / | -5% | / | /
Nc1cc(N)nc(SCCOc2ccccc2F)n1
→ 2.8% | / | -7%[11.4 µM] | / | /
Cc1cc(C)c2c(CC(=O)Nc3nccs3)coc2c1
→ -0.8% | i | / | i | 1.9e-09
CC1CCN(CCCn2c(=S)[nH]c3ccccc3c2=O)CC1
→ -1.8% | / | 6% | / | /
CCOc1ccccc1CNC(=O)C1CCCN(c2nc3ccccc3o2)C1 (stereo not given)
→ -3.6% | i | ? | i | 7.6e-09
Cc1ccc(S(=O)(=O)c2cc3c(=O)n4cccc(C)c4nc3n(CC3CCCO3)c2=N)cc1 (stereo not given)
→ / | i | / | i | 1e-09
CCn1c(=O)c(C(=O)NCCNCCO)c(O)c2ccccc21
→ 2.9% | i | / | i | 3.8e-09
O=C(c1cc(C(F)(F)F)cc(C(F)(F)F)c1)N1CCC2(CCN(Cc3nccs3)CC2)CC1
→ 0.0% | i | -3% | i | 1.4e-08
Cc1cc(C)n(C(=O)CNC(=O)CCc2ccccc2)n1
→ / | i | / | i | 1.1e-09
Cc1nc2ccccc2cc1O
→ / | i | / | i | 9.8e-08
CC(=O)OCC(=O)[C@H]1CC[C@H]2[C@@H]3CC=C4C[C@@H](O)CC[C@]4(C)[C@H]3CC[C@]12C
→ / | i | / | i | 3.6e-09
CCOC(=O)c1ccc(NC(=O)CN2C(=O)CSC2=O)cc1
→ -2.6% | / | -3% | / | /
COc1ccc(N2CCN(C(=O)COc3ccc4ccccc4c3)CC2)cc1
→ -0.4% | i | 6% | i | 1e-09
N#Cc1cc(Cl)c(N2CCOCC2)cc1C#N
→ 1.2% | i | 8% | i | 1e-09
COc1ccccc1CN1CC[C@@]2(CCCN(S(=O)(=O)c3ccccc3)C2)C1
→ 1.5% | i | 15% | i | 1e-09
CC(=O)NCCOc1nc(N(C)C)nc(N(C)C)n1
→ -0.9% | i | 7% | i | 1e-08
CSc1nsc(SCC(=O)NC2CCCCC2)n1
→ -3.0% | i | -12% | i | 7.4e-09
NC(=O)CCCC1=NS(=O)(=O)c2ccccc2N1
→ -0.3% | i | 3% | i | 1e-09
COc1cccc(C2=NOC(C(=O)NC3CCCCC3)C2)c1 (stereo not given)
→ -0.6% | i | ? | i | 1e-09
COc1ccc(N2CCN(C(CNC(=O)c3ccc4c(c3)OCO4)c3cccnc3)CC2)cc1 (stereo not given)
→ -1.2% | i | 26% | i | 4e-08
O=C1CC(SCCO)C(=O)N1c1ccc(Oc2ccccc2)cc1 (stereo not given)
→ -1.8% | i | -1% | i | 1e-09
CCOC(=O)CNC(=O)COc1ccc(Cl)cc1Br
→ -3.1% | i | 11% | i | 6.1e-08
Cc1cc(C)n(C(=O)c2ccc(S(=O)(=O)N3CCCC3)cc2)n1
→ -1.1% | i | -3% | i | 1.3e-08
O=C(CNCCC1=CCCCC1)Nc1ccccc1N1CCCCC1
→ 0.2% | i | 14% | i | 3.2e-09
CCCn1c(SCCc2ccccc2)nc2c1c(=O)[nH]c(=O)n2C
→ 1.2% | i | 14% | i | 3.6e-09
CCCNC(=O)c1noc2c1CCc1ccccc1-2
→ -1.2% | / | 7% | / | /
Cc1ccc(OCCN2C(=O)OC(C)(C)C2(C)O)cc1 (stereo not given)
→ -0.1% | i | -1%[11.4 µM] | i | 1e-09
Cc1ccc(OCC(O)Cn2c(=N)n(CCN3CCCCC3)c3ccccc32)cc1 (stereo not given)
→ 2.3% | i | ? | i | 1e-09

High-throughput results deposited in PubChem by National Center for Advancing Translational Sciences (NCATS).
